KCNQ2 inh – KCNQ2 channel blockers in CHO-K1 cells – cell-based, FluxOR thallium flux, B-score, primary screen (AID 2156). 310,000 tested, 1.1% active. O88943. B-score at 10 µM. 20 min; active compounds read low; only compounds with negative scores are shown here; some inactives read as strong as hits;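 active = fluorescence ratio B-score at most minus 3 library SDs, with starting brightness B-score within 2 library SDs, cut at about -5.5 in these data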
Target sequence (O88943 whole entry, looked up): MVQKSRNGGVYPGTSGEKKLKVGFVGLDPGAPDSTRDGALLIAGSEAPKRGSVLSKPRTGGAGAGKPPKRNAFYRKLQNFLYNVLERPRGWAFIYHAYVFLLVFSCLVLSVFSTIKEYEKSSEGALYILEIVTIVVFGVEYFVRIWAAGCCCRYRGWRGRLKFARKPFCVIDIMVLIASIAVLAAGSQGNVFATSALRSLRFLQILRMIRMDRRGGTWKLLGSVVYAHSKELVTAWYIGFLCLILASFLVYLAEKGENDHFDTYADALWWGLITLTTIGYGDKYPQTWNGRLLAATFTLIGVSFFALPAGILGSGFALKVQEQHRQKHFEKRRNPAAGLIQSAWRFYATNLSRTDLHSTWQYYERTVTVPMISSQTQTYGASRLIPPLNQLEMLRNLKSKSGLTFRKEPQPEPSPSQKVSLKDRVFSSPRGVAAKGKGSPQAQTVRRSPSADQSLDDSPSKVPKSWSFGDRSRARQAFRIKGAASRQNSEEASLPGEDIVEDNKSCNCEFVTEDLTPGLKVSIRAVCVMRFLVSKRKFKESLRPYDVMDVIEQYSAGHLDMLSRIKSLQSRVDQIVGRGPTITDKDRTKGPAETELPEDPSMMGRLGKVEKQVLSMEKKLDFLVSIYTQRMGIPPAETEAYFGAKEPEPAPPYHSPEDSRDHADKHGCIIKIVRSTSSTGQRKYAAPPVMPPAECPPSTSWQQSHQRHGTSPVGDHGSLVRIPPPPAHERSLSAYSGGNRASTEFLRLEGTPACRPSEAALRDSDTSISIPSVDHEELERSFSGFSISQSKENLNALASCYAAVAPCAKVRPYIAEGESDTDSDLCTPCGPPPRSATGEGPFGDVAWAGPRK
KCNQ2 inh baseline – second read-out of KCNQ2 inh, no call of its own (marks repeat the call); B-score; measured here: initial fluorescence intensity artifact check;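 brightness before thallium and not channel activity; 0 = typical well and far values either way flag optical interference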
* marks the source's active call; other numbers are inactive results; i = inactive; & = joins results of further samples. A portion of the library; rates above refer to the full screens.

SMILES	KCNQ2 inh	KCNQ2 inh baseline
O=C(c1ccc(Cl)nc1)N1CCN(C/C=C/c2ccccc2)CC1	i	0.11
Nc1nonc1-n1nnc(C(=O)N/N=C/c2ccccc2Cl)c1CSc1ccccc1	i	-0.66
O=C(CCS(=O)(=O)c1ccccc1)Nc1ccc2c(c1)C(=O)NC2=O	i	-1
CCOc1ccc(-n2cc(C(=O)c3cc(Cl)ccc3O)cc(C#N)c2=O)cc1	i	-0.4
O=C(N/N=C/c1coc2ccccc2c1=O)c1ccc(Cl)cc1	i	0.29
O=C(Nc1ccccc1Sc1ccccc1)C1CCCO1 (stereo not given)	i	2.5
O=c1cc2c(nn1Cc1cccc([N+](=O)[O-])c1)-c1ccccc1CC2	i	1.1
CC(=O)Nc1ccccc1OC(C)C(=O)N1CCC(C)CC1 (stereo not given)	i	0.93
Cc1nc(-c2ccccc2)sc1C(=O)CSc1ccc(Cl)cc1	i	-0.33
COc1ccc(C(=O)N2CCOC2CNC(=O)C(=O)NCc2ccccc2Cl)cc1 (stereo not given)	i	-0.1
COc1ccccc1CNC(=O)C1CCCN(S(=O)(=O)c2ccc3c(c2)C(C)(C)C(=O)N3C)C1 (stereo not given)	i	-0.45
Cc1cc(C(=O)COC(=O)c2cc(Cl)ccc2N)c(C)n1Cc1ccco1	i	-1.5
COc1ccc(CC(=O)Nc2cc(Cl)ccc2N2CCCC2)cc1	i	0.18
CC(=O)Nc1ccc(NC(=O)C(C)OC(=O)c2cc(S(=O)(=O)N3CCOCC3)ccc2Cl)cc1 (stereo not given)	i	-1.7
Cc1ccc(-c2cc(C(=O)N3CCN(c4ccc(F)cc4)CC3)c3ccccc3n2)o1	-6*	0.19*
Cc1cc(Nc2ccc(F)cc2F)n2nc(C)nc2n1	i	-0.15
O=C(NCCc1ccc(Cl)cc1)c1ccc2c(c1)OCCO2	i	-0.84
Cc1cccc(/C(N)=N/OC(=O)c2ccccc2Cl)c1	i	-0.85
O=C(NCCN1C(=O)C2C3C=CC(C3)C2C1=O)N1CCOCC1 (stereo not given)	i	1.6
O=C(COc1ccc(-c2ccccc2)cc1)N1CCCC1	i	0.01

6 entries drawn at random from the list so far, as already listed:
SMILES	KCNQ2 inh	KCNQ2 inh baseline
Cc1cc(Nc2ccc(F)cc2F)n2nc(C)nc2n1	i	-0.15
O=C(NCCN1C(=O)C2C3C=CC(C3)C2C1=O)N1CCOCC1 (stereo not given)	i	1.6
CC(=O)Nc1ccccc1OC(C)C(=O)N1CCC(C)CC1 (stereo not given)	i	0.93
O=C(c1ccc(Cl)nc1)N1CCN(C/C=C/c2ccccc2)CC1	i	0.11
COc1ccccc1CNC(=O)C1CCCN(S(=O)(=O)c2ccc3c(c2)C(C)(C)C(=O)N3C)C1 (stereo not given)	i	-0.45
O=C(Nc1ccccc1Sc1ccccc1)C1CCCO1 (stereo not given)	i	2.5

Complete entries from above. Values in the order: KCNQ2 inh, KCNQ2 inh baseline
Record of CCOc1ccc(-n2cc(C(=O)c3cc(Cl)ccc3O)cc(C#N)c2=O)cc1 → i, -0.4
Record of O=c1cc2c(nn1Cc1cccc([N+](=O)[O-])c1)-c1ccccc1CC2 → i, 1.1

(more compounds)
SMILES	KCNQ2 inh	KCNQ2 inh baseline
COC(=O)Nc1nnc(SCc2ccc(C)cc2)s1	i	0.8
COc1ccc(/C=N/N2CCN(c3ccccc3)CC2)cc1Br	i	2.1
Cc1ccccc1Nc1nc(-c2sc(NC(=O)c3ccc([N+](=O)[O-])cc3)nc2C)cs1	i	0.85
O=C(/C=C/c1ccc2ccccc2n1)N1CCN(S(=O)(=O)c2ccccc2F)CC1	i	1.2
CCOC(=O)c1c(NC(=O)CSc2nnc3c(n2)[nH]c2ccccc23)sc2c1CCN(C)C2	i	0.4
Cc1ccc(-n2nc3c(c2NC(=O)c2cc4ccccc4o2)CS(=O)(=O)C3)cc1	i	0.48
CC(C)N1C(=O)C2C(C(=O)NC3CCCCC3)C3C=CC2(O3)C1C(=O)NC1CCCC1 (stereo not given)	i	-0.77
Cc1cccc(/C=N/NC(=O)c2ccc(NC(=O)c3ccccc3C)cc2)n1	i	-1.1
NC(=O)CSc1oc(-c2ccco2)nc1S(=O)(=O)c1ccccc1	i	-0.11
COc1ccc(NC(=O)c2ccccc2Sc2ccc(NC(C)=O)nc2)cc1	i	0.82
Cc1sc2nc(C3CC3)nc(SCC(=O)N3c4ccccc4CC3C)c2c1C (stereo not given)	i	-0.29
O=C(c1cc(Cl)nc2ccccc12)N1CCCCC1	i	-0.74
O=Cc1ccc2noc(-c3ccc(F)cc3)c2c1	i	8.3
Brc1ccc2c(c1)CNc1c(ncnc1N1CCOCC1)O2	i	-0.07
CSc1ccc(-c2nc(CSCC(=O)N3CCOCC3)c(C)o2)cc1	i	-1.5
CCOC(=O)Nc1ccc(S(=O)(=O)N2CCC(C)CC2)cc1	i	-0.43
Cc1ccc(N(CC(=O)NCc2ccc3c(c2)OCO3)C(=O)c2csnn2)cc1	i	-0.64
CCC(CC)C(=O)NCc1ccccc1OC	i	-0.61
Cc1cnc(C(=O)Nc2nnc(C(C)C)s2)cn1	i	0.62
O=C(CN1CCCCC1)N=Nc1c(O)[nH]c2ccccc12	i	0.66
CCOc1ccc(CO[C@@H]2O[C@H](CO)[C@@H](O)[C@H](O)[C@H]2NC(C)=O)cc1OC	i	3.3
COc1ccccc1/C=C/C=N/NC(=O)c1cnccn1	i	0.14
CC(=O)c1ccc(NC(=O)C(C)N(C)CC(=O)Nc2ccccc2Cl)cc1 (stereo not given)	i	0.7
COc1ccc(-n2nc(C(=O)NCC3CCCO3)c3ccccc3c2=O)cc1 (stereo not given)	i	-0.02
COC(=O)C1=C(C)N(C2CCCCC2)C(=O)/C1=C\c1cccs1	i	0.73
O=C(NCCCn1ccnc1)c1ccccc1Cl	i	-0.88
Cc1cc(C)c(NC(=O)COC(=O)C2CCC(=O)N2)c(C)c1 (stereo not given)	i	-1
C[C@@H]1C=C(C(=O)O)O[C@H](OCc2ccc(CO)cc2)C1	i	-0.08
Cc1ccc2c(C)nc(Nc3ncc4c(n3)CCCC4=O)nc2c1	i	-1.1
O=C(c1ccc(COc2ccccc2Cl)o1)N1CCN(Cc2ccc3c(c2)OCO3)CC1	i	-0.57&0.67
O=C(Nc1ccccc1C(F)(F)F)c1cc(S(=O)(=O)N2CCC3(CC2)OCCO3)ccc1F	i	-0.01
CCOC(=O)[C@@H]1[C@H]2COc3ccc(Br)cc3[C@H]2N2C(=O)N(c3cccc(F)c3)C(=O)[C@]12C	i	-0.93
Clc1ccc(CSc2nccn2Cc2ccccc2)cc1	i	0.81
Cc1nn(-c2ccccc2)c(Cl)c1C(=O)NCCN(C)C	i	-0.29
Cc1cccc(S(=O)(=O)c2c(N)n(-c3ccccc3)c3nc4ccccc4nc23)c1	i	-0.07
Cc1c(Cl)c(C(F)(F)F)nn1CC(=O)NCc1ccco1	i	0.07
COc1ccc(O)c(/C=N/NC(=S)Nc2cccc(S(=O)(=O)N(C)C)c2)c1	i	2.4
COc1ccc(C(C(=O)NC2CCCCC2)N(Cc2ccco2)C(=O)c2snc(C(N)=O)c2N)cc1 (stereo not given)	i	-2.6
CC(=O)c1cccc(-n2nnnc2SCC(=O)Nc2cccc(NC(=O)c3ccco3)c2)c1	i	-0.82
COc1ccc(NCc2nnc(SCC#N)n2-c2ccccc2OC)cc1	i	-0.91

3 compounds already listed, sorted by heavy-atom count, largest number first.
SMILES	KCNQ2 inh	KCNQ2 inh baseline
CCOC(=O)[C@@H]1[C@H]2COc3ccc(Br)cc3[C@H]2N2C(=O)N(c3cccc(F)c3)C(=O)[C@]12C	i	-0.93
CC(=O)c1ccc(NC(=O)C(C)N(C)CC(=O)Nc2ccccc2Cl)cc1 (stereo not given)	i	0.7
Cc1ccc2c(C)nc(Nc3ncc4c(n3)CCCC4=O)nc2c1	i	-1.1

Later entries:
SMILES	KCNQ2 inh	KCNQ2 inh baseline
CC(C)(NS(=O)(=O)OCC(Cl)(Cl)Cl)c1ccccc1	i	0.31
Cc1ccccc1N(C(=O)Cn1nnc(-c2cccs2)n1)C(C(=O)NCCC(C)C)c1ccco1 (stereo not given)	i	-1.3
COc1ccccc1C1C(C(=O)c2sc(C)nc2C)=C(O)C(=O)N1CCN1CCOCC1 (stereo not given)	i	-0.28
Cc1ccc(-c2nc(SCC(=O)NCC3CCCO3)c(-c3ccccc3)[nH]2)cc1 (stereo not given)	i	-1.1
O=C(CN1C(=O)NC2(CCCC2)C1=O)NNC(=O)c1ccc(Br)cc1	i	-0.7
COC(=O)c1ccc(NC(=O)CSc2nnc(COc3c(C)cccc3C)o2)cc1	i	0.03
Cc1nc2ccc(C(=O)N/N=C/c3ccccc3O)cc2[nH]1	i	0.11
O=C(CSc1nc2ccccc2[nH]1)NC1CCS(=O)(=O)C1 (stereo not given)	i	2.8
CC(CC(=O)N1CCN(C(=O)c2ccccc2)CC1)c1ccccc1 (stereo not given)	i	0.01
N#C/C(=C\c1ccncc1)C(N)=O	i	-0.26
CCCCOc1ccc(Cl)cc1CSc1n[nH]c(C)n1	i	-0.01
CC(=O)Nc1ccc(NC(=O)C(C)OC(=O)c2ccc(C)s2)cc1 (stereo not given)	i	-0.02
COc1ccc(NC(=O)CSc2nc3[nH]ncc3c(=O)[nH]2)cc1OC	i	-0.43
Cc1ccc(/C=C(\NC(=O)c2ccccc2)C(=O)NC(Cc2ccccc2)C(=O)O)cc1 (stereo not given)	i	3.1
CCN1CCCC1CNCC(=O)Nc1ccc(OC(F)(F)F)cc1 (stereo not given)	i	-0.14
CCC(C)(C)C1CCC(=NNS(=O)(=O)c2ccc(C)c([N+](=O)[O-])c2)CC1 (stereo not given)	i	-1.5
CCCCC(=O)Nc1nc2c(s1)COc1ccccc1-2	i	0.34
CCC(C)NC(=O)Cn1c(=O)n(CCCCCC(=O)Nc2ccccc2)c(=O)c2sccc21 (stereo not given)	i	3.9
CNNC(=S)NC1CC2CC1C1C=CCC21 (stereo not given)	i	0.79
CN(C)c1cccc(C(=O)Nc2cc(C(F)(F)F)ccc2-n2cnc3ccccc32)c1	i	0.09
Cc1nc(SCC(=O)NCCc2ccc(Cl)cc2)nc(C)c1C	i	-0.78
Cc1nn(CC(=O)OCC(=O)Nc2ccccc2[N+](=O)[O-])c(C)c1[N+](=O)[O-]	i	-0.09
CCCn1nc2cc(C(=O)NC3CCCc4ccccc43)ccc2c1OCC (stereo not given)	i	0.2
COc1ccc(C2N(c3ccc(OC)cc3)C(=O)C3CCCN32)cc1 (stereo not given)	i	2.9
COc1ccc(OC)c(C2=Nn3c(nnc3C3CCCCC3)SC2)c1	i	0.72
CCOC(=O)N1CCN(S(=O)(=O)c2cccc3ccc(C)nc23)CC1	i	0.41
N=C1C(c2nc(-c3cccc([N+](=O)[O-])c3)cs2)=C(O)CN1NC(=O)c1ccco1	i	0.16
COc1cccc(-c2cc(C(=O)Nc3cc(OC)c(OC)c(OC)c3)no2)c1	i	-3
CCOC(=O)c1c(NC(=O)CN2CCCCC2)sc(C)c1C	i	-0.37
COc1ccccc1-n1cnc2c(c1=O)c1nc3ccccc3nc1n2CCc1ccccc1	i	-0.43
Cc1cc(S(=O)(=O)n2cnc3cc([N+](=O)[O-])ccc32)ccc1Cl	i	2.9
Cc1cc(C)n(CC(O)COc2ccc3ccccc3c2)n1 (stereo not given)	i	-1.3
COC(=O)c1ccc(OCCn2cnc3ccccc3c2=O)cc1	i	0.15
O=[N+]([O-])/C(C(=C(Cl)Cl)N1CCOCC1)=C1\NCCO1	i	0.54
Clc1ccc(C(c2ccccc2)N2CCNCC2)cc1 (stereo not given)	i	-0.31
CCOc1cc(CNC2CCCC2)cc(Cl)c1OCc1ccccc1	i	-0.31
COC(=O)c1ccc(CSc2nc3c(c(=O)n2-c2ccccc2)SCC3)o1	i	-0.1
O=C(NCCCn1ccnc1)c1ccc(Br)s1	i	0.36
COc1ccc(NC(=O)CN2C(=O)C(c3ccccc3)=NC23CCCCCC3)cc1	i	0.68
Cn1cccc1Cc1nnc(SCC(=O)NCCc2ccccc2)n1C	i	1.6
Cc1ccc(OCc2ccc(C(=O)Nc3ccc(C(N)=O)cc3)o2)c([N+](=O)[O-])c1	i	1.1
Cc1cc(C(=O)NC2CCCC(C)C2C)c2ccccc2n1 (stereo not given)	i	-0.42
Cc1ccccc1CNC(=O)C(=O)NCC1CCCN1S(=O)(=O)c1ccccc1 (stereo not given)	i	-1.1
COC(=O)[C@@H]1C[C@H]2CC[C@H](O)C[C@H]2N1Cc1ccc(C(F)(F)F)cc1	i	-1.7
CC(C)CC(C)c1cc(N)nc2nc3ccccc3n12 (stereo not given)	i	-0.85
CCCCNc1oc(-c2cccs2)nc1S(=O)(=O)c1ccccc1	i	1.7
Cc1ccc(-n2nc(C)c(C3(O)C(=O)N(C)c4ccccc43)c2N)cc1 (stereo not given)	i	-0.11
COC(=O)c1sc(N2C(=O)C(O)=C(C(=O)c3ccc(C)o3)C2c2ccc(F)cc2)nc1C (stereo not given)	i	0.8
CC(=O)C1=C(C)OC(N)=C(C#N)C1c1cc2cc(C)c(C)cc2nc1Cl (stereo not given)	i	0.1
C/C(=N/NC(=O)C1CCCN1C(=O)c1ccc([N+](=O)[O-])cc1)c1ccc(Br)cc1 (stereo not given)	i	-1.5
COc1ccc(C(C(=O)NC2CCCC2)N(Cc2ccccc2)C(=O)c2nsc(Cl)c2Cl)cc1 (stereo not given)	i	-0.14
CCOc1cc(NC(=S)Nc2ccc(Cl)cc2)c(OCC)cc1NC(C)=O	i	0.5
O=C1CN(C(=O)COc2c(Cl)cccc2Cl)c2ccccc2N1	i	1.2
Cc1nn(C)cc1C(C)Nc1nc2nonc2nc1N1CCCCC1 (stereo not given)	i	0.01
Cc1ccc(OCC(=O)N2CCCCC2)c(Br)c1	i	-0.1
CN1CCC(NC(=O)Nc2ccc(Br)cc2)CC1	i	-0.05
